Screening data: PubChem BioAssay, National Center for Advancing Translational Sciences (NCATS)
Anthrax LT inh: qHTS Assay for Anthrax Lethal Toxin Internalization; Cells, anthrax lethal toxin internalization, FRET ratio (460/530); 70,000 tested, 0.67% active; AID 912, 2007; Potency, µM (top dose mostly 40 µM), for inactives: at the highest dose activity change, negative = inhibition, hits mostly inhibitors; active = well fitted falling ratio curve with the 530 nm signal flat; inconclusive = other ratio curves, or a change in one channel alone; inactive = flat curves in the ratio and both channels; the % refers to the ratio; note: % is set by controls: 0 for no effect and ±100 for the full control effect; nearly all actives have a fitted effect of over 50% in size; tested in ME-180 cells; beta-lactamase reporter
Prx2 Sm inh: Schistosoma Mansoni Peroxiredoxins (Prx2). Potency, µM. Schistosoma mansoni peroxiredoxin 2 (Prx2). AID 448, 2006. 65,000 tested, 0.07% active. S. mansoni Prx2 activity coupled to TGR/GSH (TGR is thioredoxin glutathione reductase), NADPH fluorescence loss, qHTS; some inactives read as strong as hits; active means full or partial inhibition curve with a strong effect at the top dose; inconclusive means weaker partial or single-point curve; inactive means no accepted curve; note: series up to 57 µM; many of its hits are not listed in these tables
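qHTS, coupled TGR/Prx2 format; 15 min compound preincubation at RT; reaction started with H2O2 (2.5 mM aliquot); kinetic NADPH fluorescence decrease, ex 365/em 450 nm.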
Active calls of the source: *; ? = inconclusive; / = no result given; & = joins results of further samples; [ ] = another dose, or the depositor's remark. Potency is the fitted concentration of half-maximal effect.

Order of results – Anthrax LT inh | Prx2 Sm inh
- Cc1ccc(C)c(-n2c(Cc3cc(=O)[nH]c(=O)[nH]3)nnc2SCC(=O)NCC2CCCO2)c1 (configuration not stated)
    6% | >57
- O=C(O)CCC(=O)Nc1nnc(C(F)(F)F)s1
    ? | >57
- C=C(C#N)C(=O)OCC
    -8% | /
- Cc1sc2ncnc(OCC(=O)NCc3cccs3)c2c1C
    -5% | >57
- CN(C)CCC=C1c2ccccc2CCc2ccccc21
    ? | >57&>57
- Cc1ccccc1NC(=O)CSc1[nH]c(=O)cc(C)c1C#N
    3% | >57
- O=C(c1ccc(CN2CCc3ccccc3C2)cc1)N1CCCCC1
    -8% | >57
- O=C(NCc1cccs1)c1cc2ccccc2o1
    -11% | >57
- CCOC(=O)c1ccc(-c2nnc(-c3ccc(Cl)cc3Cl)o2)cc1
    0% | >57
- CCCn1c(CCc2ccccc2)nnc1SCC(=O)N1CCCC1
    ? | >57
- O=c1cc(O)c2c(=O)n3c4c(cccc4c2o1)CCC3
    -2% | >57
- CCOc1ccc(C(=O)Nc2nnn(CC)n2)cc1
    12% | >57
- CCN(CC)CCCn1c(-c2ccccc2)nc2c(NCCOC)nc(C)nc21
    6% | /
- Cc1noc(/C=C/N(C)C)c1S(=O)(=O)N(C)CC(=O)NC1CCCCC1
    -2% | /
- CN(C)CCCN1c2ccccc2C(C)(C)c2ccccc21
    -11%[8 µM] | >57
- CCOC(=O)COc1nc(Nc2ccccc2C)nc(N(C)C)n1
    -10% | >57
- COc1ccc(NS(=O)(=O)c2ccc(NS(=O)(=O)c3ccc(C)cc3)cc2)nn1
    0% | /
- CC[C@@H](c1ccccc1)n1c(=O)n2n(c1=O)[C@H]1[C@H](O)[C@H]3O[C@H]3C(=O)[C@H]1CC2
    6%[8 µM] | /
- CC1CCCC(C)N1C(=O)CSc1nnc(-c2cccs2)o1 (configuration not stated)
    -6% | >57
- Cc1ccc(S(=O)(=O)N2CC3(C)CN(S(=O)(=O)c4ccc(C)cc4)CC(C)(C2)C3O)cc1 (configuration not stated)
    -5% | >57
- COc1ccc(-c2nc3cnc(N4CCNCC4)nc3n(-c3ccc(OC)cc3)c2=O)cc1
    ? | >57
- Cc1ccc(-c2nn3c(C)nnc3s2)cc1NC(=O)CSc1ccc(Cl)cc1
    0% | >57
- CCOC(=O)Cc1csc(NC(=O)CSc2nc(C)cc(=O)[nH]2)n1
    ? | >57
- CCOc1ccccc1NC(=O)Cc1ccccc1OC
    ? | >57
- O=C(Cn1ncc2c(=O)oc3ccccc3c21)NC1CC1
    -8% | >57
- CCC(=O)Nc1cc2nn(-c3ccc(OC)cc3)nc2cc1C
    3% | >57
- CCOc1ccccc1OCC(=O)NCc1ccco1
    -10% | >57
- C=CCNc1nnc(C)c2ccccc12
    7% | >57
- Cn1c(SCC(=O)O)nc2ccccc2c1=O
    6% | >57
- CC(CCc1ccccc1)NC(=O)CN1CCN(Cc2ccccc2)C1=O (configuration not stated)
    14% | >57
- CC(=O)Oc1cc2c(C(C)=O)coc2c2ccccc12
    -7% | >57
- CC(C)NC(=O)c1cccc(Cn2cc(Cl)cn2)c1
    -2% | >57
- CCN(CC)CCN1C(=O)C(O)=C(C(=O)c2sc(C)nc2C)C1c1cccnc1 (configuration not stated)
    10% | >57
- COc1ccc(C(=O)Nc2ccc(N3CCN(c4ccc(OC)cc4)CC3)c(C#N)c2)cc1
    5% | >57
- O=C(NCc1ccccn1)c1cccs1
    3% | /
- NC(=O)CN1C[C@@H](O)CC1=O
    2% | >57
- CCn1nc(NC(=O)c2ccncc2)c2cc3ccc(C)cc3nc21
    / | >57
- COc1cc(NC(=O)C2CCCC2)c(OC)cc1Cl
    -14% | /
- Cc1cc(NC(=O)CSc2nc3ccccc3c(=O)n2CCCC(=O)NCc2ccco2)n[nH]1
    3% | >57
- COc1ccc(CN2CC(C(=O)NCc3cccc(OC)c3)CC2=O)cc1 (configuration not stated)
    / | >57
- COc1ccc(CCNS(=O)(=O)c2cccc(C(=O)O)c2)cc1OC
    9% | >57
- Nc1ccc2c(c1)C(=O)N(CC1CCCO1)C2=O (configuration not stated)
    ? | >57
- CCOc1ccc2nc(NC(=O)CN3CCN(c4ccccn4)CC3)sc2c1
    ? | >57
- CCOC(=O)N1CCC(NC(=O)c2sc3nc4n(c(=O)c3c2C)CCCC4)CC1
    0% | >57
- CCOC(=O)c1ccc(NC(=O)C2CCN(S(=O)(=O)c3ccccc3)CC2)cc1
    4µM* | >57
- O=C1CC2CS(=O)(=O)CC2N1C1CCCCC1 (configuration not stated)
    2% | >57
- O=C(O)C1CC(=O)N(c2ccc(F)c(F)c2)C1 (configuration not stated)
    -15% | >57
- Cc1noc(C)c1CSc1nc2sc(C)c(C)c2c(=O)n1C1CCCC1
    -19% | >57
- CN(C)CCCNC(CC(=O)Nc1ccc(Cl)cc1)C(=O)O (configuration not stated)
    -9% | >57
- Cn1c(=O)oc2cc(S(=O)(=O)Nc3ccc4c(c3)OCO4)ccc21
    ? | >57
- CN(C)S(=O)(=O)c1ccc(C(=O)Nc2ccccn2)cc1
    -7% | /
- O=C(NCc1cccnc1)NC1(C(F)(F)F)Oc2ccc(Cl)cc2O1 (configuration not stated)
    6% | >57
- O=C(CCS(=O)(=O)Cc1ccccc1)NCC1CCCO1 (configuration not stated)
    1% | >57
- CCCCCCc1c(O)c2ccccc2[nH]c1=O
    -18% | >57
- COc1cccc(-n2ccnc2SCC(=O)NCc2ccccc2)c1
    3% | >57
- Cc1cc2nc3[nH]c4c(Cl)cc(Cl)cc4c3nc2cc1C
    -3%[8 µM] | >57
- c1ccc(Cc2nn3c(Cn4nnc5ccccc54)nnc3s2)cc1
    ? | >57
- O=C(OCC(=O)N1CCN(C(=O)c2ccco2)CC1)c1cc(-c2ccccc2)nc2ccccc12
    ? | >57
- Cc1ccnc(N2CCC(C(=O)Nc3cccc(C(F)(F)F)c3)CC2)n1
    -27% | >57
- CCCCN(Cc1cc2cc(OC)ccc2[nH]c1=O)C(=O)COc1ccccc1
    -8% | >57

(more compounds)
Order of results – Anthrax LT inh | Prx2 Sm inh
- O=C(Nc1cccc(S(=O)(=O)C(F)F)c1)c1ccc(Cl)c(S(=O)(=O)N2CCOCC2)c1
    10µM* | >57
- CCc1ccc(-c2nc(CN3CCC(C(=O)NCc4ccco4)CC3)c(C)o2)cc1
    / | >57
- CCn1c2ccccc2c2cc(NC(=O)CSc3nnc(-c4ccccc4OC)n3N)ccc21
    -1% | ?
- O=C(Nc1ccc(OC(F)F)c(Cl)c1)Nc1ccc2c(c1)OCO2
    ? | >57
- CC1(C)CC(=O)C2=C(C1)Nc1nc(SCCN3CCOCC3)[nH]c(=O)c1C2c1cccs1 (configuration not stated)
    ? | >57
- COc1ccc(S(=O)(=O)n2cnc3cc(C)c(C)cc32)cc1C
    ? | >57
- Cc1cc2oc(=O)cc(CN3CCCCC3C)c2c(C)c1Cl (configuration not stated)
    / | >57
- CC(=O)NC(Cc1ccccc1C)C(=O)NC1CCN(c2c3c(nc4ncnn24)CCC3)CC1 (configuration not stated)
    -6% | >57
- CC(C)c1ccc(C2CC(=O)N3CN(C)CSC3=C2C#N)cc1 (configuration not stated)
    -8% | >57
- Cc1ccc2nc3c(cc(C#N)c(=O)n3CC3CCCO3)c(=O)n2c1 (configuration not stated)
    ? | >57
- COc1ccccc1OCc1nnc(SCC(=O)Nc2ccc(C)cc2)n1C
    0% | >57
- O=C(CSc1ncnc2ccccc12)N1CCN(c2ccccc2)CC1
    -12% | >57
- COc1ccc(NC(=O)c2cc3cc(OC)ccc3oc2=N)cc1
    -2% | >57
- CCOC(=O)N1CCN(C(=O)C2CCN(S(=O)(=O)N(CC)CC)CC2)CC1
    / | >57
- CCOC(=O)N1CCC(c2cc(=O)n3[nH]cc(C(=O)OC)c3n2)CC1
    9% | >57
- COc1ccccc1S(=O)(=O)Cc1ccc(C(=O)NCc2ccc3c(c2)OCO3)o1
    -27% | >57
- COC(=O)c1nnn(CC(=O)Nc2cccc(OC)c2)c1C(=O)OC
    8% | >57
- O=C(CSc1nnc(-c2ccc(O)cc2)o1)N1CCOCC1
    -5% | >57
- O=C(O)c1[nH]c2ccc(Cl)cc2c1CC(=O)N1CCN(C(=O)c2ccco2)CC1
    8% | >57
- CC1CCN(CCCNC(=O)C2CCC(=O)N2C2CCCC2)CC1 (configuration not stated)
    -6% | >57

Arranged by number of heavy atoms (smallest number first): three of the compounds above.
Order of results – Anthrax LT inh | Prx2 Sm inh
- O=C(Nc1ccc(OC(F)F)c(Cl)c1)Nc1ccc2c(c1)OCO2
    ? | >57
- COc1ccccc1S(=O)(=O)Cc1ccc(C(=O)NCc2ccc3c(c2)OCO3)o1
    -27% | >57
- O=C(Nc1cccc(S(=O)(=O)C(F)F)c1)c1ccc(Cl)c(S(=O)(=O)N2CCOCC2)c1
    10µM* | >57

More compounds follow.
Order of results – Anthrax LT inh | Prx2 Sm inh
- CCOC(=O)c1c(-c2ccncc2)csc1N
    0% | >57
- OC12CCCCC1C(c1ccc3c(c1)OCO3)N(Cc1ccc(F)cc1)CC2 (configuration not stated)
    0% | >57
- CCOC(=O)c1c(N)c(C#N)c2n1CCCCC2
    3% | >57
- Cc1cccc(-n2c(C)nc3cc(C(=O)N4CCC5(CC4)OCCO5)ccc32)c1
    ? | >57
- CCOc1ccc2nc(NC(=O)C(CC)Sc3nc(C)cc(=O)[nH]3)sc2c1 (configuration not stated)
    / | >57
- CC(C)Cn1c(SCC(=O)N2CCN(S(=O)(=O)c3ccccc3)CC2)nc2ccccc21
    8% | >57
- COC(=O)c1cc2ccsc2n1CC(=O)N(C)c1ccccc1
    -2% | >57
- CCCCC(=O)OCCNC(=O)c1cc2ccccc2oc1=O
    5% | >57
- O=C(CCC1CCCCC1)Nc1ncn[nH]1
    3% | >57
- COc1ccccc1-c1cc(Nc2ccn[nH]2)ncn1
    -2% | >57
- CCN1CCCC1CNC(=O)c1cc2c(-c3cccc(OC)c3)nn(C)c2s1 (configuration not stated)
    16µM* | >57
- CC1(C)Cc2ccccc2-c2nnnn21
    -9% | >57
- O=C(NO)c1ccccc1
    2% | /
- Cc1oc2ccccc2c1-c1cn2c(n1)SCC2
    -4% | >57
- COc1ccccc1C(OC(=O)c1cccs1)C(=O)NCc1ccco1 (configuration not stated)
    -4% | >57
- CCn1c(C(=O)N2CCC(C(=O)N3CCN(c4ccccn4)CC3)CC2)cc2sccc21
    -26% | >57
- O=C(NCc1ccco1)c1nc2ccccc2s1
    ? | >57
- CNC(=O)N(c1ccccc1)c1ccccc1
    -3%&14% | >57
- CCn1nnc(NC(=O)c2cccc(-c3cc4ccccc4oc3=O)c2)n1
    ? | >57
- CC1(C)CC(=O)C(C=NCCc2ccc(O)cc2)=C(O)C1
    -3% | /

Profiles, looked up by structure:
`O=C(CCC1CCCCC1)Nc1ncn[nH]1` is entered as Anthrax LT inh = 3%; Prx2 Sm inh = >57
`CC(C)Cn1c(SCC(=O)N2CCN(S(=O)(=O)c3ccccc3)CC2)nc2ccccc21` is entered as Anthrax LT inh = 8%; Prx2 Sm inh = >57

More compounds.
Order of results – Anthrax LT inh | Prx2 Sm inh
- COC(=O)c1cc(OC)c(OC)cc1NC(=O)c1cc(C)on1
    0% | /
- N#CC1=C(SCc2ccccc2)NC(=O)CC1c1cccc(O)c1 (configuration not stated)
    ? | /
- COc1cc(NC(=O)Cn2nnc(-c3ccncc3)n2)cc(OC)c1
    -14% | >57
- N#Cc1cccc(-c2cn(S(=O)(=O)c3ccc(Cl)cc3)nc2N)c1
    -1% | >57
- C=C(C)c1cccc(C(C)(C)NC(=O)N2CC(C)OC(C)C2)c1 (configuration not stated)
    -9% | >57
- O=C(Nc1ccc(N2CCN(C(=O)c3ccco3)CC2)c(Cl)c1)c1c(F)c(F)c(F)c(F)c1F
    -3% | >57
- CC(=O)N1CCc2cc(Br)cc(S(=O)(=O)NCC3CCCO3)c21 (configuration not stated)
    -4% | >57
- C=CCN1CC[C@]23c4c5ccc(O)c4O[C@@H]2C(=O)CC[C@@]3(O)[C@H]1C5
    4% | >57
- COc1c(C)cc(Br)cc1C(=O)Nc1ccc(N2CCN(S(C)(=O)=O)CC2)cc1
    -1% | >57
- COC(=O)Cn1c(C)c(C(C)=O)c(C(C)=O)c1C
    -10% | >57
- CCCOc1ccc(C(=O)Nc2ccc(N3CCN(C(C)=O)CC3)cc2)cc1
    -2% | >57
- OC1(c2cccc(C(F)(F)F)c2)CCN(c2ccc(-c3ccccc3)nn2)CC1
    -11% | /
- CCOC(=O)c1sc(=NC(=O)c2ccc(OC)c(OC)c2)n(C)c1C
    0% | >57
- Cc1cccc(Nc2ccccc2C(=O)OCC(=O)N2CCOCC2)c1C
    -20% | >57
- COC(=O)c1ccc2c(c1)nc(C)n2CCO
    -4% | >57
- Cc1ccc(-n2c(SCC(=O)Nc3nccs3)nc3c(c2=O)SCC3)cc1
    -2% | >57
- CCN(CC)c1ccc(C2C(C(=O)Nc3ccccn3)=C(C)NC3=C2C(=O)CC(C)(C)C3)cc1 (configuration not stated)
    ? | /
- CO[C@H]1COC(=O)CCC[C@@H](C)[C@H](OC)COC(=O)[C@@H](C)NC(=O)C/C=C\[C@@H]1C
    -7%[8 µM] | /

Not all compounds are listed; rates above refer to the full screens.
